Source: PubChem
GLA inh pH 4.5: blocks human alpha-galactosidase A at pH 4.5; P06280; purified enzyme, 4-MU-alpha-Gal fluorescence, pH 4.5; activity change, negative = inhibition, % at 105 µM; 230,000 tested, under 10 active; AID 1467; inconclusive = small, poorly fitted or top-dose-only inhibition, or a rising curve; inactive = flat fitted curve, though single readings scatter; no compound was filed as active;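 note: 0% = full activity with enzyme and -100% = basal without enzyme; dose as in the result columns while the protocol names 77 µM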
Target sequence (P06280 whole entry, looked up): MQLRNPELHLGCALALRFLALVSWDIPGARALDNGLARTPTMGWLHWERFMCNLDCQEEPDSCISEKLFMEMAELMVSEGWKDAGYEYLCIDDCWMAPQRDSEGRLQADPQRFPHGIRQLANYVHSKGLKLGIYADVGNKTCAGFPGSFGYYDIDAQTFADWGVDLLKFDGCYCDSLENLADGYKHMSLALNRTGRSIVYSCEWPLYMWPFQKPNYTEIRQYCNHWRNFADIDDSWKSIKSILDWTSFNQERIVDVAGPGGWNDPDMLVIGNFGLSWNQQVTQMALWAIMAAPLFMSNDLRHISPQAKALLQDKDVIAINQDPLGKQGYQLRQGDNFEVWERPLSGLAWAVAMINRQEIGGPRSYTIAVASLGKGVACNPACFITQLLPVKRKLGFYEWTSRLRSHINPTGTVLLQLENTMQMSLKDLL
Rango dissoc inh: inhibition of RanGTP-driven Rango-importin beta dissociation | actives 0.071% (n = 340,000) | Potency, µM (doses to about 46.1 µM), for the others: at the top dose activity change, negative = inhibition | AID 540253 | Biochemical FRET Rango-importin beta, RanGTP-induced dissociation; active means falling FRET ratio curve, often poorly fitted, with flat reads before Ran was added; inconclusive means other falling curves, or compound fluorescence or quenching; inactive means flat or rising ratio curve;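 note: potency is the fitted concentration of half-maximal effect; % of control where 0% means no effect; nearly all actives have a fitted effect of over 45% in size; -100% = wells without RanGTP and RCC1; the record marks most hits as doubtful in a second field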
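Two FRET readings bracket the reaction: one 5 min after compound meets Rango–importin beta, another 45 min after RanGTP-RCC1 (0.6 uM Ran, 0.2 uM RCC1, 2 mM GTP) is added. Only the second defines inhibition.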
miR-21 reporter: raises the signal of a miR-21 reporter; HeLa miR-21 FLuc reporter, luciferase, 48 h; Potency, µM (titrated, usually from 38.3 µM), for inactives: at the highest dose reporter change, positive = more light; 340,000 tested, under 10 active; AID 2288; active = well fitted rising curve with a large enough effect; inconclusive = small, poorly fitted or top-dose-only effect; inactive = no such curve, though single readings can be large or run the other way;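 note: % of control where 0% means no effect; miR-21 action dims this reporter so a rising signal means less miR-21 action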
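Using DMEM plus 10% FBS, HeLa miR-21-FLuc cells are incubated with test compounds (final up to about 40uM) for 48 hours; firefly luciferase signal is then imaged following reagent-mediated lysis.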
Rango-impB inh: Rango-importin beta binding inhibition; Rango CFP/YFP FRET sensor + importin beta, 45 min; actives 0.031% (n = 340,000); Potency, µM (highest dose often 92.2 µM), without a hit: top-dose inhibition of complex formation; Q14974; active = rising FRET ratio curve, often small or poorly fitted; inconclusive = mostly compound fluorescence or quenching in the first reads; inactive = flat curves in all reads;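 note: potency is the fitted concentration of half-maximal effect; 0% = DMSO wells and 100% = buffer wells lacking importin beta; nearly all actives have a fitted effect of over 15% in size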
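FRET biosensor (snurportin 1 IBB flanked by EYFP and cerulean), 50 nM, with compound 5 min, then 0.125 microM importin beta in PBS, 1 mM DTT, 0.02% Tween-20, 0.1% BSA. CFP/YFP ratio read after 45 min at room temperature; pre-read flags interference.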
The depositor's hits bear a star; ? = inconclusive; · = not tested or not shown; & = joins results of further samples. These rows are one share of the data; rates above refer to the full screens.

SMILES,GLA inh pH 4.5,Rango dissoc inh,miR-21 reporter,Rango-impB inh
CC1CC(C)CN(S(=O)(=O)c2ccc(NC(=O)C3CSC4(C)CCC(=O)N34)cc2)C1 (stereo not given),·,-1%,·,-1.2%
O=S(=O)(c1cccc2nsnc12)N1CCc2ccccc2C1,·,-2%,-34%,-4.4%
Cc1cc(C)cc(NS(=O)(=O)c2ccc(Oc3ncc(C(F)(F)F)cc3Cl)cc2)c1,-23,3%,14%,-0.1%
O=C(c1cc(-c2ccc(O)cc2)on1)N1CCN(c2ccc(F)cc2)CC1,·,-20%,5%,0.2%
COc1cc2c(cc1OC)C(NC(=O)C(F)(F)F)C/C2=N\O (stereo not given),6,-2%,6%,?
COc1cccc(NC(=O)CN(C)C(=O)CC2CCCC2)c1,·,8%,·,2.3%
C#Cc1ccc([C@@H]2C=C(C(=O)N3CCN(Cc4ccc5c(c4)OCO5)CC3)O[C@H](OCC)[C@H]2CCCO)cc1,-4,-4%,3%,0.5%
CCn1cc(CNC(=O)NC2CCCCC2)c(C)n1,-3,-20%,-41%,?
CC1CC(C)CN(C(=O)c2cccc(N3C(=O)c4ccccc4C3=O)c2)C1 (stereo not given),·,-11%,·,-1.3%
O=C1CCCC2=C1C(Cc1ccccc1)C1=C(CCCC1=O)O2,2,8%,-1%,-1.9%
Cc1noc(C)c1S(=O)(=O)N1CCC(C(=O)N2CCN(Cc3ccc4c(c3)OCO4)CC2)CC1,-1,-5%,1%,4.0%
O=C(CCN1CCc2ccccc2C1)c1ccc2c(c1)OCCO2,5,8%,?,-0.2%
CCCNC(=O)Cn1c(=O)oc2ccccc21,-12,2%,-1%,-1.1%
O=C(O)c1cc(-c2cccs2)[nH]n1,11,2%,-1%,0.5%
COC(=O)[C@H](Cc1ccccc1)NC(=O)NCCc1ccc(S(N)(=O)=O)cc1,9,-8%,-5%,4.1%
Cc1ccc(-c2ccnc3c(Br)c(C)nn23)cc1,·,-4%,-4%,-0.8%
CN(CC(=O)Nc1cccc(F)c1)CC(=O)N1CCc2ccccc21,·,0%,·,-0.1%
COC(=O)C1CCN(C(=O)COC(=O)c2oc3ccccc3c2C)CC1,·,33%,·,-4.7%
COC(C[C@@H]1O[C@@H]1C(=O)[C@H](C)OCc1ccccc1)OC,·,1%,·,0.0%
Cc1cc(C)c(S(=O)(=O)Nc2cccc(/C=C/C(=O)O)c2)c(C)c1,-20,3%,-13%,6.9%
COc1cccc(CN2CC(C(=O)NCCOc3cccnc3)CCC2=O)c1 (stereo not given),·,-6%,-2%,-0.7%
COc1ccc(CCNC(=O)C2CC(c3ccccc3[N+](=O)[O-])=NO2)cc1 (stereo not given),3,1%,-52%,1.7%
Oc1[nH]c(N=C2N=c3ccccc3=N2)c2ccccc12,-11,?,7%,?
Cc1ccc(S(=O)(=O)/N=C2\C(=O)c3ccccc3C([O-])=C2n2cc[n+](CCC(C)C)c2)cc1,2,0%,14%,0.9%
CN(C)S(=O)(=O)n1cc(/C=C(\NC(=O)c2ccccc2)C(=O)NCCCN2CCOCC2)c2ccccc21,·,-2%,-1%,1.3%

Whole records, quoted from the list.
CC1CC(C)CN(S(=O)(=O)c2ccc(NC(=O)C3CSC4(C)CCC(=O)N34)cc2)C1 (stereo not given) is listed as GLA inh pH 4.5: ·; Rango dissoc inh: -1%; miR-21 reporter: ·; Rango-impB inh: -1.2%
Cc1cc(C)c(S(=O)(=O)Nc2cccc(/C=C/C(=O)O)c2)c(C)c1 is listed as GLA inh pH 4.5: -20; Rango dissoc inh: 3%; miR-21 reporter: -13%; Rango-impB inh: 6.9%

The listing continues:
SMILES,GLA inh pH 4.5,Rango dissoc inh,miR-21 reporter,Rango-impB inh
c1ccc(-c2nc(-c3cccnc3)cs2)cc1,·,15%,-46%,0.7%
CCc1ccccc1S(=O)(=O)Cc1ccc(C(=O)NCc2ccc3c(c2)OCO3)o1,-4,-3%,6%,0.4%
CN(C)c1ccc(/C=N/NC(=O)CCC(=O)NCc2ccccc2)cc1,4,18%,-16%,3.2%
O=C1CCCC(=O)N1c1ccc(NCCOCCO)c([N+](=O)[O-])c1,-8,-7%,1%,5.6%
COc1ccc(S(=O)(=O)N2CCCC(C(=O)NC3CCCCC3)C2)cc1 (stereo not given),-4,?,3%,4.7%
O=C(NCC1COc2ccccc2O1)C1CCN(S(=O)(=O)c2ccc(Cl)cc2)CC1 (stereo not given),·,-4%,·,3.2%
CC(=O)c1cccc(NS(=O)(=O)c2cc(OCC(N)=O)c(C)cc2Cl)c1,2,0%,-5%,?
O=C(CN(Cc1ccc(F)cc1)C(=O)Cn1nnc2ccccc21)NCC1CCCO1 (stereo not given),8,17%,-8%,?
COCCN(C(=O)c1cc(-c2ccncc2)nc2ccccc12)c1c(N)n(CC(C)C)c(=O)[nH]c1=O,·,-10%,·,1.5%
CC1(C)[C@@H](O)CC[C@]2(C)C3C(O)C=C4[C@H]5C[C@@](C)(C(=O)O)CC[C@]5(C)CC[C@]4(C)[C@]3(C)CC[C@@H]12 (stereo not given in full),-5,·,9%,·
CN(C)C=Nc1nonc1-c1ccc(Cl)cc1,-7,0%,?,-3.1%
O=C(NCCc1ccccc1)c1ccc2nc(N3CCOCC3)sc2c1,·,-13%,-29%,2.9%
CCOC(=O)c1c(CN2CCCCC2)n(C)c2cc(Br)c(O)c(CN(C)C)c12,-1,-17%,-7%,0.2%
O=C(Nc1ccccc1NC(=O)NC1CCCCC1)NC1CCCCC1,5,7%,-15%,-0.3%
COc1ccc(C(C)(C)C)cc1NC(=O)Nc1ccc2c(c1)OCO2,5,1%,7%,0.0%
O=C(O)CC(CNS(=O)(=O)c1cccc2nsnc12)c1ccccc1 (stereo not given),-13,-11%,0%,8.7%
COc1ccc(NC(=S)NC2CCS(=O)(=O)C2)cc1 (stereo not given),4,-12%,-4%,?
O=C(N/N=C/c1cc(O)ccc1[N+](=O)[O-])c1ccc2c(c1)OCCO2,-7,11%,16%,4.1%
Cc1ccc(-c2c3c([nH]c(=S)c2C#N)CCCC3)o1,-8,-7%,-6%,?
N/C(Cc1ccc([N+](=O)[O-])cc1)=N\OC(=O)C1CCCCC1,5,-4%,-2%,-0.5%
Clc1ccc(CN2CCN(c3ncccn3)CC2)c(Cl)c1,·,-4%,10%,5.2%
CC1=CC(C)(C)N(C(=O)CSc2nccn2C)c2cc(C)ccc21,-4,-11%,-2%,?
CCn1c(-c2ccccc2Cl)nn(CC(=O)Nc2ccc(OC)cc2)c1=S,-5,1%,7%,-2.5%
O=C(Cn1c(=O)n(-c2ccc(F)cc2)c(=O)c2sccc21)N1CCCC1,7,-6%,-4%,-3.5%
CC(C)N(CCC(=O)c1ccc2ccccc2c1)Cc1ccccc1,-14&1,8%,·,-2.5%
CC(NC(=O)CSc1nnc(-c2cc3cc(Cl)ccc3o2)n1C)c1ccccc1 (stereo not given),4,5%,-10%,?
Cc1nc(N)ncc1Sc1ccccc1,0,-8%,-12%,2.7%
CCn1c(SCC(=O)c2ccc3c(c2)OCCO3)nnc1-c1ccco1,5,4%,-6%,-5.6%
COc1ccc2oc(C(=O)OC/C(O)=C(\C#N)c3nc4ccccc4[nH]3)c(C)c2c1,0,-1%,0%,?
Cc1nn(-c2ccccc2)c(Cl)c1C(=O)OC(C)C(=O)NC(=O)NC1CCCCC1 (stereo not given),-9,0%,3%,-4.5%
CCC(C)(C)C1CCC2(CC1)NC(=O)N(CC(=O)NCCc1c[nH]c3ccccc13)C2=O (stereo not given),·,6%,·,-1.3%
COC(Cc1n[nH]c(=S)n1-c1ccccc1)OC,0,-15%,-3%,1.8%
CC(C)=NNc1nc2sc3c(c2c(=O)[nH]1)CC(C)(C)OC3,6,?,-13%,?
COc1ccc(C(C(=O)NCc2ccccc2)N(C(=O)c2snc(C(N)=O)c2N)C2CCCC2)cc1O (stereo not given),·,2%,-24%,?
O=C(Nc1ccc(F)cc1F)NC1CCCCCCC1,·,-11%,-47%,-3.0%
CCN(CC)P(=O)(/C(Cl)=C\Nc1c(C)n(C)n(-c2ccccc2)c1=O)N(CC)CC,5,6%,0%,-1.9%
CN(C)C(CNC(=O)c1ccc(Br)cc1)c1ccco1 (stereo not given),·,-12%,-8%,-2.1%
C/C(CC(=O)c1ccccc1)=N\NC(=O)CC#N,-11,-9%,-3%,2.6%
CC(C)=CCC/C(C)=C/CC(C)(C)CNCCN1CCNCC1,-22,·,-3%,·
Cc1cc(C)nc(N/N=C/c2ccc(N3CCOCC3)cc2)n1,9,0%,-1%,-0.8%
c1ccc(-c2oc3ncnc(NCCCn4ccnc4)c3c2-c2ccccc2)cc1,4,1%,7%,-2.8%
O=C(C1CCN(S(=O)(=O)N2CCCCC2)CC1)N1CCCCC1,0,-23%,0%,?
CCOc1ccc(CCN2C(=O)C(=O)N([C@H](CCCN(C)Cc3ccccc3)CNCc3ccccc3)C[C@@H]2C(C)C)cc1,-18,·,24%,·
O=C(NN1CCOCC1)c1ccc(S(=O)(=O)N2CCCCC2)cc1,-6,4%,1%,2.0%
COc1ccc2ccc3cccc[n+]3c2c1,·,?,·,?
O=S(=O)(Nc1nccs1)c1ccc(Br)cc1,7,7%,-2%,-2.4%

18 successive records out of the list so far, for reference:
SMILES,GLA inh pH 4.5,Rango dissoc inh,miR-21 reporter,Rango-impB inh
CC(NC(=O)CSc1nnc(-c2cc3cc(Cl)ccc3o2)n1C)c1ccccc1 (stereo not given),4,5%,-10%,?
Cc1nc(N)ncc1Sc1ccccc1,0,-8%,-12%,2.7%
CCn1c(SCC(=O)c2ccc3c(c2)OCCO3)nnc1-c1ccco1,5,4%,-6%,-5.6%
COc1ccc2oc(C(=O)OC/C(O)=C(\C#N)c3nc4ccccc4[nH]3)c(C)c2c1,0,-1%,0%,?
Cc1nn(-c2ccccc2)c(Cl)c1C(=O)OC(C)C(=O)NC(=O)NC1CCCCC1 (stereo not given),-9,0%,3%,-4.5%
CCC(C)(C)C1CCC2(CC1)NC(=O)N(CC(=O)NCCc1c[nH]c3ccccc13)C2=O (stereo not given),·,6%,·,-1.3%
COC(Cc1n[nH]c(=S)n1-c1ccccc1)OC,0,-15%,-3%,1.8%
CC(C)=NNc1nc2sc3c(c2c(=O)[nH]1)CC(C)(C)OC3,6,?,-13%,?
COc1ccc(C(C(=O)NCc2ccccc2)N(C(=O)c2snc(C(N)=O)c2N)C2CCCC2)cc1O (stereo not given),·,2%,-24%,?
O=C(Nc1ccc(F)cc1F)NC1CCCCCCC1,·,-11%,-47%,-3.0%
CCN(CC)P(=O)(/C(Cl)=C\Nc1c(C)n(C)n(-c2ccccc2)c1=O)N(CC)CC,5,6%,0%,-1.9%
CN(C)C(CNC(=O)c1ccc(Br)cc1)c1ccco1 (stereo not given),·,-12%,-8%,-2.1%
C/C(CC(=O)c1ccccc1)=N\NC(=O)CC#N,-11,-9%,-3%,2.6%
CC(C)=CCC/C(C)=C/CC(C)(C)CNCCN1CCNCC1,-22,·,-3%,·
Cc1cc(C)nc(N/N=C/c2ccc(N3CCOCC3)cc2)n1,9,0%,-1%,-0.8%
c1ccc(-c2oc3ncnc(NCCCn4ccnc4)c3c2-c2ccccc2)cc1,4,1%,7%,-2.8%
O=C(C1CCN(S(=O)(=O)N2CCCCC2)CC1)N1CCCCC1,0,-23%,0%,?
CCOc1ccc(CCN2C(=O)C(=O)N([C@H](CCCN(C)Cc3ccccc3)CNCc3ccccc3)C[C@@H]2C(C)C)cc1,-18,·,24%,·
